# HIV TAR-Tat: HIV-1 TAR-Tat binding disruption. 0.6% of 100,000 active. z-score (no concentration beside the values). HIV-1 TAR RNA, Tat peptide displacement FRET; stronger effect = higher value. AID 1259389;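 further: score is relative to mean and SD of negative controls; some compounds called inactive have numbers as strong as hits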
# CDC25B CDK2 inh: human CDC25B-CDK2/CyclinA binding inhibition; P30305+P24941; HTRF CDC25B-CDK2/CyclinA binding, anti-His/anti-Flag; stronger effect = higher value; z-score (concentration not given with the values); 0.72% of 94,000 active; AID 1259370;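 further: score is relative to mean and SD of negative controls; strong numbers were not always called active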
# Numbers without * were called inactive; . = not tested or not shown.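 How the source made its calls: active means z-score from 3 up in half or more of its runs; inactive means the rest.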
# Every second line gives: CDC25B CDK2 inh	HIV TAR-Tat
CC1CCCCC1NC(=O)C(=O)Nc1ccc2nc3n(c(=O)c2c1)CCCCC3 (centres undefined)
  -0.35	0.87
CCOc1ccc(-c2ncnn2-c2ccc(C)c(Cl)c2)cc1
  -0.45	-0.86
Cn1c(=O)[nH]c(=O)c2c1nc1n2CC(c2ccc(Br)cc2)O1 (centres undefined)
  -0.17	.
Cc1nc(Oc2ccc(F)cc2)c2c(C)c(C)sc2n1
  .	-0.01
CCOc1ccc(C2CC(c3cccc(OC)c3)n3ncnc3N2)cc1 (centres undefined)
  -1.4	2.1
CCNc1nc(N)c(C(=O)c2ccc(F)cc2)s1
  -0.72	-0.83
COC(=O)c1cc(NC(=O)c2cc3ccccc3oc2=O)cc(C(=O)OC)c1
  -3.3	.
O=C1c2cccnc2C(=O)N1Cc1ccc(S(=O)(=O)NCc2cccs2)s1
  .	-0.01
Cc1cc(NCCO)n2c(nc3ccccc32)c1C#N
  -1.5	-0.31
CCCSc1ncccc1C(=O)Nc1cc(C)no1
  -1.4	.
COc1ccc(Nc2nc(N3CCN(c4ccccc4OC)CC3)nc3c2cnn3C)cc1Cl
  .	0.8
Cc1cc2c3c([nH]c2cc1S(=O)(=O)N(C)C(C)CCc1ccco1)CC(C)(C)CC3=O (centres undefined)
  .	0.58
Cc1cc(C)cc(-n2c(SCC(=O)Nc3cc(C)on3)nc3c(c2=O)SC(C)C3)c1 (centres undefined)
  -1.3	2.5
CC1CN(c2nc3c([nH]2)c(=O)n(C)c(=O)n3C)CC(C)O1 (centres undefined)
  -1.2	0.57
CN(CCNc1ccc2nnc(-c3ccc(F)cc3)n2n1)C1CCCCC1
  -2.3	0.09
COc1ccc(-c2nc3ncccn3c2NCc2ccccc2)cc1
  .	0.34
CSc1cccc(N2C(=O)N(Cc3ccc(F)cc3Cl)C3CS(=O)(=O)CC32)c1 (centres undefined)
  1.4	0.48
O=C(Nc1cccnc1)c1c2c(nc3ccccc13)C(=O)N(C1CCCCC1)C2
  .	0.7
CN(CC(=O)O)S(=O)(=O)c1cccc2cccnc12
  .	0.57
COc1ccc(N2C(=O)CSC2c2ccc(SC)cc2)cc1 (centres undefined)
  1.3	.
CN(C(=O)c1noc2c1CCc1sccc1-2)c1ccccc1Cl
  .	0.83
COc1ccc(CN2C(=O)c3cccnc3C2=O)cc1S(=O)(=O)NC1CCCCC1
  .	2.3
CCc1ccc2nc(Nc3ncc4c(n3)CC(c3ccco3)CC4=O)nc(C)c2c1 (centres undefined)
  14	32*
CCC(=O)N1CCCc2cc(S(=O)(=O)N3CCC(N4CCCCC4)CC3)ccc21
  -0.91	.
Cc1ccc(NS(=O)(=O)c2ccc(-c3cc(C)no3)s2)c(C)c1
  .	1.1
COCCn1c(C2CC(=O)N(c3ccc(OC)cc3)C2)nc2ccccc21 (centres undefined)
  -1.5	0.83
CCN1CCN(c2nc(-c3cccnc3)nc3ccccc23)CC1
  -0.37	1.5
O=C(Nc1ccc(Cl)cc1)c1cc2n(n1)C(C(F)(F)F)CC(c1ccco1)N2 (centres undefined)
  -0.21	1.8
Cc1nc(-c2ccc(S(=O)(=O)Nc3ccc4c(c3)OCCO4)s2)cs1
  -0.53	.
CCCc1nn2c(=O)cc(COC(=O)c3ccc(F)cc3)nc2s1
  .	-0.49
NS(=O)(=O)c1ccc(CCNc2ncnc3c2c(-c2ccccc2)cn3-c2ccccc2)cc1
  .	0.78
CCc1cc2c3c([nH]c2cc1S(=O)(=O)N(C)CCCc1ccco1)CCCC3=O
  .	1
CCN(CC)c1c(S(=O)(=O)c2ccc(Cl)cc2)cnc2ccc(F)cc12
  -1.3	-0.1
CC1CCN(CC2CCN(S(=O)(=O)N(C)C)CC2)CC1
  .	0.38
O=C(NCc1ccco1)c1ccc(CS(=O)Cc2ccc(Cl)cc2)o1 (centres undefined)
  .	0.78
O=C(Nc1ccc(F)cc1F)NC(c1ccccc1)c1nnc(-c2ccc(Cl)cc2)o1 (centres undefined)
  .	1.2
CCOC(=O)c1ccc2nc(NC(=O)c3ccc(F)c(Cl)c3)sc2c1
  -3	.
COc1ccc(C(=O)CSc2nc3n(n2)C(c2ccccc2)C2=C(CC(C)(C)CC2=O)N3)cc1 (centres undefined)
  -1	-0.31
O=C(O)c1sc2ccccc2c1Cl
  -0.25	0.96
CCOC(=O)N1CCC(N2C(=O)c3ccccc3C2Nc2ccc(F)cc2F)CC1 (centres undefined)
  0.89	0.47
Fc1ccc2c(c1)/C(=N\Nc1cc(C(F)(F)F)ccc1Cl)CCO2
  -1.7	.
O=C(C(Cc1ccccc1)N1C(=O)C2CCCCC2C1=O)N1CCN=C1c1ccccc1 (centres undefined)
  -3.7	.
Cc1cccc2ccc(C3C(=O)c4cccc5cccc(c45)C3=O)nc12
  -1.4	-2.2
CN(Cc1ccccc1)c1nnc(N)s1
  .	-4
Cc1cc(N(C)C)nc(N2CCN(C(=O)Nc3ccccc3)CC2)n1
  .	0.26
c1cncc(-c2nc3c4ccccc4nc(NCC4CCCO4)n3n2)c1 (centres undefined)
  -0.44	0.79
CC(C)C(=O)Nc1nnc(SCc2cc(=O)c3cccc(Cl)c3[nH]2)s1
  .	1.7
CCCSCCCN1C(=O)c2cc(-c3cccs3)nn2CC1(C)C(=O)NC1CCCCC1 (centres undefined)
  .	1.1
COC(=O)/C=C(/Oc1cccc(C(F)(F)F)c1)C(=O)OC
  -2	.
CCCCC(NC1CCS(=O)(=O)C1)C(=O)O (centres undefined)
  -0.91	0.05

# The results go on.
# Every second line gives: CDC25B CDK2 inh	HIV TAR-Tat
Cn1c(=O)oc2cc(S(=O)(=O)NC3CCCc4ccccc43)ccc21 (centres undefined)
  -0.89	2.6
O=C(C1=C(Nc2cccc(Br)c2)c2ccccc2S1(=O)=O)N1CCOCC1
  .	0.91
CCN(CC)CCCNc1oc(/C=C/c2ccc(F)cc2)nc1C#N
  -0.69	1.8
Cc1ccc(CN2CCCN(Cc3c(C)cc(C)cc3C)S2(=O)=O)cc1
  .	0.06
CCOc1ccc(C2CC(=O)N3CN(c4ccc(OCC)cc4)CSC3=C2C#N)cc1 (centres undefined)
  2.1	0.45
O=C1c2ccccc2-c2ccc(C(=O)N3CCOCC3)cc21
  -0.2	0.96
CC1CCN(C(=O)c2cc3nc(-c4ccco4)cc(C(F)(F)F)n3n2)C(C)C1 (centres undefined)
  -1.6	-5.5
Cc1cccc(-n2nnc(S(=O)(=O)c3ccccc3)c2C)c1
  -1.5	-1.4
Nc1ncc(C(=O)OCc2ccc(Cl)cc2)c(C(F)(F)F)n1
  -0.75	.
O=c1c(Nc2cccc(Br)c2)c(-c2ccc(Cl)cc2)c1=O
  .	-0.43

# In the list so far, 5 contain a CF3 group:
# Every second line gives: CDC25B CDK2 inh	HIV TAR-Tat
O=C(Nc1ccc(Cl)cc1)c1cc2n(n1)C(C(F)(F)F)CC(c1ccco1)N2 (centres undefined)
  -0.21	1.8
Fc1ccc2c(c1)/C(=N\Nc1cc(C(F)(F)F)ccc1Cl)CCO2
  -1.7	.
COC(=O)/C=C(/Oc1cccc(C(F)(F)F)c1)C(=O)OC
  -2	.
CC1CCN(C(=O)c2cc3nc(-c4ccco4)cc(C(F)(F)F)n3n2)C(C)C1 (centres undefined)
  -1.6	-5.5
Nc1ncc(C(=O)OCc2ccc(Cl)cc2)c(C(F)(F)F)n1
  -0.75	.

# (cont.)
# Every second line gives: CDC25B CDK2 inh	HIV TAR-Tat
O=C(CSc1nc2ccccc2c(=O)[nH]1)N1CCN(c2ccc(F)cc2)CC1
  .	1.2
CCCn1c2ccccc2c2cnn(CC(=O)N(CCOC)Cc3ccco3)c(=O)c21
  .	0.32
Cc1cc(C)cc(NS(=O)(=O)c2ccc3c(c2)n(C)c(=O)n3C)c1
  -1.4	-0.27
Cn1c(NCCc2ccccc2)nc2c1c(=O)n(Cc1ccccc1)c(=O)n2C
  2.9	1.7
COC(=O)C1CCN(S(=O)(=O)c2cc3c4c(c2)CCC(=O)N4CCC3)CC1
  .	2
Cc1ccccc1C1OC2(C(=O)c3ccccc3C2=O)C2C(=O)N(c3ccccc3)C(=O)C12 (centres undefined)
  -1.1	-0.44
COc1cc2nc(NCCCN(C)Cc3ccccc3)n3nc(-c4cccnc4)nc3c2cc1OC
  -1.2	-0.25
COc1ccc2c(c1)C=C(C(=O)Nc1nccs1)C=CO2
  0.19	-1.6
c1csc(-c2nnc3n2C2(CCCC2)Cc2ccccc2-3)c1
  -0.67	0.11
O=S(=O)(Nc1ccc(F)cc1Cl)c1ccc2[nH]c3c(c2c1)CCCC3
  .	-2.4
c1ccc(Sc2ncnc3sccc23)nc1
  -0.79	.
CC(C)c1ccc(C2CC(c3ccc(Cl)cc3)n3nnnc3N2)cc1 (centres undefined)
  .	1.7
Cc1cc(-c2ccccc2)n2ncc(C#N)c2n1
  -0.13	0.1
COc1ccc(Oc2ccc([N+](=O)[O-])cc2C(=O)O)cc1
  -0.43	.
O=c1[nH]c2ccccc2nc1/C=C/c1cccs1
  -0.46	.
c1ccc(-c2noc(N3CCC(N4CCCCC4)CC3)n2)cc1
  .	0.08
Clc1cccc(-c2noc3ncnc(NC4CCCCC4)c23)c1
  -1.8	0.33
CCN1CCCC1CNC(=O)C(C)n1c2ccccc2c2nc(=O)cc(C)n21 (centres undefined)
  -1.5	.
O=C1CSC(c2ccc(F)cc2)N1c1ccccc1 (centres undefined)
  -1.7	1.4
COc1ccc(CCNc2ncnc3sc(C)c(C)c23)cc1OC
  .	1.1
COc1ccc(C2NC(=O)c3c(sc4c3CCCC4)N2)cc1 (centres undefined)
  -3.1	0.48
Cn1c(=O)n(CCc2ccccc2)c(=O)c2c1nc1n2CCN1c1ccc(F)cc1
  .	1.7
COc1ccc(Cl)cc1CNCCCSc1nnnn1-c1ccccc1
  0.51	-0.3
Cc1nn2c(c1-c1ccc(Cl)cc1)NC1=C(C(=O)CCC1)C2c1ccccc1 (centres undefined)
  -2	2
CNC(=O)c1ccc2c(c1)nc1n2CCCCC1
  .	0.77
COc1cc(NC(=O)c2c(C)oc3nc(C)nc(N4CCCC4)c23)cc(OC)c1
  .	2.1
CCOc1ccc(CNS(=O)(=O)c2ccc(-c3coc(C)n3)cc2)cc1
  .	0.56
COc1ccc(NC(=O)NC2COc3ccccc3C2)cc1Cl (centres undefined)
  .	2.5
CCn1nnc(NCc2ccc(Cl)cc2)n1
  .	0.53
COc1ccc(N2CC(C(=O)Nc3nnc4n3CCS4)CC2=O)cc1 (centres undefined)
  .	0.86
O=C(O)Cn1c(SCCOc2ccccc2Cl)nc2ccccc21
  0.35	-1.8
Cc1cc2c(c(=O)n1CC1CCCO1)C(c1ccc3c(c1)OCO3)C(C#N)=C(N)O2 (centres undefined)
  -0.22	.
COc1ccc2nc3oc(C(=O)N4CCC(N5CCCCC5)CC4)cc3cc2c1
  2.2	.
COCCNC(=O)CCc1nc2sc3c(c2c(=O)[nH]1)CCCCC3
  .	0.44
Fc1ccccc1-c1nc(-c2ccncc2)no1
  -0.74	-1.4
CC1CCc2onc(C(=O)N3CCC(N4CCCCC4)CC3)c2C1 (centres undefined)
  .	0.11
CCc1nnc2c(Nc3ccc(C)cc3)nc3ccccc3n12
  -2.4	2.6
CCOC(=O)C1CCN(c2nc3ccccc3n(CC)c2=O)CC1
  0.69	1.1
COc1cc(OC)c(OC)cc1C=NNC(=O)Cn1nnc2ccccc21
  -3.3	.
Cc1cc(C(=O)O)nn1-c1ccccc1
  -0.81	.

# Random excerpt: three compounds from above, in no set order.
# Every second line gives: CDC25B CDK2 inh	HIV TAR-Tat
CCOC(=O)C1CCN(c2nc3ccccc3n(CC)c2=O)CC1
  0.69	1.1
COc1ccc2nc3oc(C(=O)N4CCC(N5CCCCC5)CC4)cc3cc2c1
  2.2	.
COc1cc(OC)c(OC)cc1C=NNC(=O)Cn1nnc2ccccc21
  -3.3	.

# (next part)
# Every second line gives: CDC25B CDK2 inh	HIV TAR-Tat
Cc1ccc(-n2c(CN3CCNCC3)nc3cccnc32)cc1
  .	-0.37
CC1CCN(C(=O)C2CCN(S(=O)(=O)c3ccc4c(c3)NC(=O)CO4)CC2)CC1
  .	1.1
COc1cc(OC)cc(OC)c1
  .	2.2
Cc1ccc(-n2c(=O)c3sccc3n(Cc3cc(=O)n4cc(Cl)ccc4n3)c2=O)cc1F
  -0.73	.
Cc1nn(C(C)C(=O)NC(C)c2ccccc2)c(=O)c2c1sc1ccccc12 (centres undefined)
  -0.11	2.9
COC(=O)c1c(Cl)c(Cl)c(C(=O)OC)c(Cl)c1Cl
  .	1.6
COc1ccccc1CNc1nc2ccccc2n1C
  -2.5	2.6
N#Cc1c(-c2ccccc2)nc(SCC(=O)OCCOc2ccccc2)[nH]c1=O
  -2	0.39
CC1(C)C2CCC(C2)C1(C)NC(=S)N/N=C/C=C/c1ccccc1 (centres undefined)
  -1.6	.
CCOc1ccc(NC(=O)CN(C2=NC3CS(=O)(=O)CC3S2)c2ccc(OCC)cc2)cc1 (centres undefined)
  1.4	2
CCOC(=O)N1CCN(C(=S)Nc2ccc3nc4c5ccccc5c5ccccc5c4nc3c2)CC1
  -0.13	.
CCOC(=O)c1c(C)c(C(=O)NC(C)COC)c(C)n1C (centres undefined)
  -2.2	.
Cc1nc2ncnn2c(C)c1CCC(=O)Nc1csc(N)n1
  0.26	.

# Two entries from above, with each value named:
Cc1nc2ncnn2c(C)c1CCC(=O)Nc1csc(N)n1
- CDC25B CDK2 inh: 0.26
- HIV TAR-Tat: .
Cc1ccc(-n2c(=O)c3sccc3n(Cc3cc(=O)n4cc(Cl)ccc4n3)c2=O)cc1F
- CDC25B CDK2 inh: -0.73
- HIV TAR-Tat: .
